gsp antagonist: qHTS for Antagonists of gsp, the Etiologic Mutation Responsible for Fibrous Dysplasia/McCune-Albright Syndrome: qHTS; gsp-mutant cells, cAMP HTRF, 30 min; control for the full effect not named in the record; Potency, µM (highest dose often 76.9 µM), for inactives: at the highest dose activity change, negative = inhibition, hits mostly inhibitors; actives 0.4% (n = 340,000); AID 624288, 2012; active = falling curve of any shape with a large fitted effect; inconclusive = falling curve, mostly with a smaller effect; inactive = flat or rising curve; cell line not stated here;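 also: intracellular cAMP measured with PDE inhibitor Ro 20-1724 present during compound exposure; potency is read from the fitted curve at half-maximal effect; % is scaled to controls: 0 for no effect and ±100 for the full control effect; nearly all actives have a fitted effect of over 65% in size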
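Measurement of cellular cAMP by homogeneous time-resolved fluorescence following a 30 min compound exposure at 37C. The PDE inhibitor […] was present throughout; the assay buffer was DPBS with 0.05% BSA and 0.005% Tween 20.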
Sfp PPTase inh: qHTS Assay for Inhibitors of Bacillus subtilis Sfp phosphopantetheinyl transferase (PPTase); 4'-phosphopantetheinyl transferase ffp (Bacillus subtilis), Q9F4F7; Biochemical Sfp PPTase activity, qHTS; Potency, µM, for the others: max response, negative = inhibition, most hits filed as inhibitors; actives 3.5% (n = 310,000); active = well fitted inhibition curve with a large enough effect; inconclusive = small, poorly fitted or top-dose-only effect, or another doubt; inactive = no such curve, though single readings can be large or run the other way;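 also: the enzyme is Sfp with the accession as filed and its product quenches rhodamine fluorescence; potency is read from the fitted curve at half-maximal effect; 0% = enzyme reaction without inhibitor and -100% = no enzyme wells; top concentration of the series not given in the record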
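Fluorescence-quenching assay: 15 nM Sfp-PPTase preincubated 15 min at room temperature with compound, then 5 uM rhodamine-CoA and 12.5 uM BHQ-2-labelled YbbR peptide added. Fluorescence (ex 525/em 598 nm) read at start and after 30 min; difference gives rate.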
gsp agonist: qHTS for Agonist of gsp, the Etiologic Mutation Responsible for Fibrous Dysplasia/McCune-Albright Syndrome: qHTS. gsp mutant cells, cAMP HTRF, 30 min; control for the full effect not named in the record. Potency, µM (highest dose often 76.9 µM), inactives show top-dose activation (cAMP increase), usual class: activators. actives 0.13% (n = 340,000). AID 624287, 2012; active = well fitted activation curve with a large enough effect; inconclusive = small, poorly fitted or top-dose-only effect, or another doubt; inactive = no such curve, though single readings can be large or run the other way; cell line not stated here;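 also: phosphodiesterase inhibitor Ro 20-1724 added with compounds to block cAMP breakdown; potency is read from the fitted curve at half-maximal effect; nearly all actives have a fitted effect of over 60% in size; about a fifth of the inactives were tested at one dose only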
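Cells in DMEM/10% FBS with G418 were pretreated with compounds in DMSO plus […] (300 uM stock) for 30 min at 37C. cAMP was measured by HTRF (cAMP-d2 plus anti-cAMP antibody-K) after 30 min at room temperature.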
TRPV1 PAM: HTS Assay for Compounds that Act as Potentiators of the Vanilloid Receptor 1. Transient receptor potential cation channel subfamily V member 1 (Homo sapiens), Q8NER1. TRPV1-expressing cells, Fluo-8 calcium influx, capsaicin EC20 potentiation; host cell line not named in the record; control for the full effect not named in the record. potentiation, % at 8.33 µM. actives 0.02% (n = 320,000). AID 540277, 2011; active means potentiation above 80%; inconclusive means 30% to 80%; inactive means below 30%; also: 0% is about no effect
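Fluo-8 calcium influx in TRPV1-expressing cells, kinetic read (ex 480/em 520 nm). Compound added and read 3 min for agonist activity, followed by capsaicin at EC20 final and 2 min further read for enhancement.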
Menin MLL FP FL: qHTS Assay for Inhibitors Targeting the Menin-MLL Interaction in MLL Related Leukemias: Competition With Fluorescein Labeled MLL-derived Peptide; 290,000 tested, under 10 active; Fluorescence polarization, fluorescein-MLL peptide displacement from menin; FP activity change, % at 61.4 µM; inconclusive = falling polarisation curve, or a change in total fluorescence; inactive = total fluorescence flat and polarisation flat or rising; no compound was filed as active; the % refers to the polarisation; negative = inhibition;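 also: % of control where 0% means no effect; inhibitors lower the polarisation; unlabelled MLL peptide was the positive control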
ClpP mod: qHTS Assay for Activators of ClpP; ATP-dependent Clp protease proteolytic subunit (Bacillus subtilis (strain 168)), P80244; purified B. subtilis ClpP, FRET peptide cleavage, 20 min; Potency, µM (titrated, usually from 57.5 µM), for inactives: top-dose activity change, negative = active; actives 1.9% (n = 340,000); AID 651965, 2013; active = well fitted falling curve with a large enough effect; inconclusive = small, poorly fitted or top-dose-only effect; inactive = no such curve, though single readings can be large or run the other way; also: potency is read from the fitted curve at half-maximal effect; the source files actives as falling curves though it sought activators and does not explain the sign; nearly all actives have a fitted effect of over 65% in size; many hits overshoot -100%
Target sequence (P80244 whole entry, looked up): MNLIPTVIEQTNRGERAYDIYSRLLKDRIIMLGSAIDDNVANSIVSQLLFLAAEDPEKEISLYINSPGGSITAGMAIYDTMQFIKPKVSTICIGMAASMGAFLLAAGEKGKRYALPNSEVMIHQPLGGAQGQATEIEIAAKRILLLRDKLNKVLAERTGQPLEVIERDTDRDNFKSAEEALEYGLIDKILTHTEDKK
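Buffer: 100 mM Tris/HCl pH8, 100 mM KCl, 0.05% low protease BSA, 2.5% glycerol, 0.01% Tween-20. ClpP 10 microg/mL final; 20 min RT; delta FRET normalized to ADEP and DMSO controls.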
D2 potentiator: Beta-Arrestin HTS for Positive Allosteric Modulators of the Human D2 Dopamine Receptor: Potentiators | D(2) dopamine receptor (Homo sapiens), P14416 | DiscoveRx D2 beta-arrestin cells, luminescence, 90 min; 100% = 57 uM dopamine signal | potentiation, % (concentration not given with the values) | actives 0.23% (n = 360,000); active = potentiation of 50% or more; inconclusive = 30% to 50%; inactive = 30% or less;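 also: compound concentration not given in the record; tested on top of an EC20 dose of dopamine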
Target sequence (P14416 whole entry, looked up): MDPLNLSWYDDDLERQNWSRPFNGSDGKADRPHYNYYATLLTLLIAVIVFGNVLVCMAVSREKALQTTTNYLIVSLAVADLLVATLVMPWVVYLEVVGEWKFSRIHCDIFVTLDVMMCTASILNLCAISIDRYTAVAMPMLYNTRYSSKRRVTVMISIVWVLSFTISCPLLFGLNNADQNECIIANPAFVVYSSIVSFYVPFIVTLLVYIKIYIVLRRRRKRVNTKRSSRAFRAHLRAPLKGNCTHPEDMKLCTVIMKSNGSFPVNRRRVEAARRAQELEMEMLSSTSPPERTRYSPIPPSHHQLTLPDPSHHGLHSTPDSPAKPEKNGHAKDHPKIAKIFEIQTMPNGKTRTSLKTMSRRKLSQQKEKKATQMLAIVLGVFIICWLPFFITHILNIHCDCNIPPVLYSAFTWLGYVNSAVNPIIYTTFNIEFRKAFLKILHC
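PathHunter D2 cells, attached overnight at 37 deg C, received compound in DMSO plus dopamine at EC20 (50 nM final) for 90 min at 37 deg C. Beta-arrestin recruitment was read as luminescence after 1 h with detection reagent at ambient temperature.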
Starred values were filed as active, the others as inactive; ? = inconclusive; · = no result given; [ ] = remark or other dose.

molecule	Sfp PPTase inh	gsp agonist	TRPV1 PAM	Menin MLL FP FL	D2 potentiator	gsp antagonist	ClpP mod
COc1ccccc1Nc1ncnc2ccc(C)cc12	-12%	-6%	19	0.9	3	3%	-4.1%
O=C(CSc1nnc(-c2ccco2)o1)N1CCCCC1	7%	?	8	·	0	4%	·
CCOC(=O)C1=C(C)NC(C)=C(C(=O)OCC)C1C(=O)OCC(=O)Nc1ccc(NC(C)=O)cc1	·	-9%	·	·	-9	·	?
O=C(/C=C/c1ccccc1)OCC(=O)c1c[nH]c2ccccc12	·	0%	·	·	-4	-15%	·
Cc1cc(NCc2ccco2)n2c(nc3ccccc32)c1C#N	1%	26%	-3	9.0	14	-13%	28µM*
Cc1oc(-c2ccccc2Cl)nc1CN1CCCCC1CO (stereo not given)	17%	-89%[inhibitor]	-6	2.2	-5	7%	-0.9%
CCc1nc2sc(C#N)c(N)c2c2c1CCCC2	·	4%	·	·	-12	3%	28µM*
CC1CCN(CC(O)COC2CC(C)CC(C)(C)C2)CC1 (stereo not given)	·	-35%[inhibitor]	·	·	-14	1%	1.3%
NC(=O)c1cnn2c(C(F)(F)F)cc(-c3ccc(F)cc3)nc12	-10%	4%	2	6.2	-10	5%	-17%
Cc1c(NC(=O)CSc2nnc(C(C)Oc3ccc(Cl)cc3)n2-c2ccccc2)c(=O)n(-c2ccccc2)n1C (stereo not given)	4%	4%	-4	2.2	3	-11%	0.1%
CCn1c(COc2ccc(C)cc2)nnc1SCc1ccc(C#N)cc1	-5%	?	-9	3.0	-4	-5%	-2.8%
Cc1ccc(C(=O)CSc2nnc(-c3c[nH]c4ccccc34)o2)cc1	9%	-12%	10	1.5	-8	-3%	2.2%
Cc1c(C)n(C)c2ccc(C(=O)NCCCN3CCCC3)cc12	-1%	-13%	1	-1.5	-11	-14%	-19%
Cn1c(C(=O)N2CCCC(C(=O)O)C2)cc2sccc21 (stereo not given)	3%	-6%	-2	0.8	-19	0%	1.3%
CCOC(=O)C1Nc2c(F)cc(C)cc2C2c3ccccc3CC12 (stereo not given)	·	·	·	·	-7	-8%	?
O=C(Oc1ccccc1C(=O)Nc1ccccc1)c1ccc(Br)c([N+](=O)[O-])c1	1%	-4%[15.4 µM]	6	3.9	-12	?	·
Cn1cc(Br)c(C(=O)NC2CCCCCC2)n1	8%	21%	13	·	-12	12%	-1.1%
CCc1cccc(NC(=S)N(CCN(C)C)C2CCN(C(C)C)CC2)c1	5%	16%	-1	-3.8	-6	9%	-1.1%
COc1ccc(OC)c(S(=O)(=O)NCCCn2ccnc2)c1	12%	8%	11	-3.7	-3	6%	-2.9%
O=S(=O)(Nc1ccc(-n2cnnn2)cc1)c1ccc(Cl)cc1	·	-5%	28	·	0	-16%	1.2%
Clc1ccc(N2CCN(/N=C/c3ccncc3)CC2)cc1	?	-3%	·	-0.3	-1	-2%	·
CN1C(=O)C(=O)/C(=C(/O)c2ccc(Br)cc2)C1c1ccccc1F (stereo not given)	23%	11%	7	14	-2	-4%	·
CC(C(=O)N1CCc2ccccc21)N1CCN(c2ccccn2)CC1 (stereo not given)	-2%	-16%	-2	2.6	-10	8%	1.6%
CCOC(=O)Cc1cc(=O)n2[nH]c(C)c(-c3ccccc3OC)c2n1	-6%	13%[15.4 µM]	4	-0.1	-15	-4%	·
COc1cc(/C=N/Nc2ccc(S(N)(=O)=O)cc2)cc(OC)c1OC	18%	-1%[15.4 µM]	18	4.1	-27	·	·
Cc1ccccc1-n1c(SC(C)C(=O)NCC2CCCO2)nnc1-c1ccncc1 (stereo not given)	·	23%[15.4 µM]	·	·	2	1%	·
O=C(CSc1nc(=O)n(CCN2CCOCC2)c2c1CCCC2)Nc1ccc(F)cc1F	·	-23%	-1	·	-17	-4%	-8.1%
COC(=O)c1sccc1NC(=O)c1ccccc1[N+](=O)[O-]	-15%	-31%	-5	2.7	4	2%	-0.9%
COc1ccc(CC(=O)NCc2nnc(SCC(=O)N3CCN(c4ccccc4)CC3)n2C)cc1	·	14%	·	·	-3	2%	0.1%
CCCCCCCCSc1n[nH]c(N)n1	0%	?	-13	-4.8	-4	-11%	-1.5%
COC(=O)[C@]1(C)N[C@H](c2ccc(-c3ccccc3)cc2)[C@@H]2C(=O)N(C)C(=O)[C@@H]21	·	-18%	-14	·	-6	2%	3.7%
CCOC(=O)Cc1csc(NC(=O)COc2ccc(C)cc2)n1	-2%	30%	6	-7.8	-3	-6%	2.6%
O=C(O)C(F)=C1c2ccccc2-c2ccccc21	·	-4%[15.4 µM]	·	·	-9	-12%	0.4%
COc1ccc(/C=C2\Oc3cc(OCC(=O)N4CC(O)C[C@H]4C(=O)O)ccc3C2=O)cc1OC (stereo not given in full)	4%	·	-4	19	-25	-4%	1.8%
COc1cc(/C=C/C(=O)OCC(=O)NC2CC2)cc(S(=O)(=O)N2CCc3ccccc32)c1OC	5%	7%[15.4 µM]	11	1.4	-5	-7%	·
O=C1c2ccc3c4c(ccc(c24)C(=O)N1NC(=O)C(F)(F)F)CC3	5%	-33%	0	0.0	?	-17%	35µM*
O=C(NCCCn1ccnc1)Nc1cccc(Cl)c1	12%	2%	-2	2.0	-21	8%	2.6%
O=C(Nc1cc(C(F)(F)F)ccc1-n1cncn1)c1ccc(-c2ccccc2)cc1	15%	3%	-36	-0.6	-15	-7%	-4.3%
Cc1ccc(C(=O)Nc2cccc3[nH]c(C(F)(F)F)nc23)cc1	-14%	?	-2	0.7	-9	?	·
CCCC(=O)Nc1cc(C)c(NC(=O)c2ccncc2)cn1	16%	-27%	3	3.3	-11	8%	0.6%
CCC(=O)NC(Nc1sc2c(c1C(=O)OC)CCC2)C(Cl)(Cl)Cl (stereo not given)	20µM*	1%	-11	8.2	11	-36%	1.3%
CSc1ncccc1C(=O)Nc1nnc(C2CC2)s1	10%	-67%[inhibitor]	10	-1.4	-12	-5%	0.9%
CC(C)Cc1cc(C(=O)Nc2cccnc2)no1	-1%	-11%	-30	-1.9	-16	2%	0.0%
COc1cc(OC)c(N(C)S(=O)(=O)c2cccc(C(=O)OCC(=O)N3CCOCC3)c2)cc1Cl	·	9%[15.4 µM]	·	·	1	-1%	0.7%
Cc1cc(=O)oc2cc(OCC(=O)N3CC[C@@]4(O)CCCC[C@H]4C3)c(Cl)cc12	2%	·	7	1.0	-19	-1%	4.7%
O=C(COC(=O)c1sc2ccccc2c1Cl)NC1CCCCC1	?	-2%	-10	0.9	-18	9%	0.8%
Cc1ccc(S(=O)(=O)N2CCN(C(=O)c3n[nH]c4ccccc34)CC2)cc1	·	2%	1	·	1	-16%	-1.0%
Cc1nnc(NC(=O)C(C)Sc2nnc(CNC(=O)c3ccccc3F)n2C)s1 (stereo not given)	·	-29%[15.4 µM]	?	·	-25	15%	·
Cc1ccc(S(=O)(=O)NNC(=S)NC(C)(C)C)cc1	0%	4%[15.4 µM]	-15	0.2	-5	-9%	0.4%
C=CCOC(=O)C1=C(C)Nc2nnnn2C1c1cc(OC)ccc1OC (stereo not given)	11%	7%	-6	0.1	-8	-10%	-3.4%
O=C(C1CCCCC1)N1C[C@H](n2cc(-c3ccc(F)cc3)nn2)[C@@H](O)C[C@@H]1c1ccccc1	·	-87%	·	·	0	·	-1.0%
COCC(=O)N(C)C[C@H]1N[C@@](C)(C(=O)OC)[C@H]2C(=O)N(C)C(=O)[C@@H]12	·	·	·	·	-1	6%	0.6%
CC(=O)c1c(C)[nH]c(C(=O)CN2CCN(S(=O)(=O)c3ccc(C(C)C)cc3)CC2)c1C	·	-14%	1	·	1	35µM*	1.2%
CN(Cc1ccccc1)Cc1ccccc1F	50µM*	1%	10	3.3	-16	0%	-2.2%
ClCC(CNCc1ccccc1)c1ccccc1 (stereo not given)	·	-33%	·	·	-14	0%	·
CC(=O)C1=C(O)CCC1=NCCc1ccccc1	17%	-3%	?	-2.4	3	-6%	0.1%
CC(C)(C)OC(=O)C[C@@H]1C/C=C\C[C@H](CC(=O)NCCO)C(=O)N[C@@H](c2ccccc2)COC1=O	·	?	·	·	-7	6%	-0.2%
O=C(Nc1ccc(NC(=O)C2CCCCC2)nc1)c1ccco1	9%	-23%	-41	-0.3	1	-6%	0.3%
Cc1ccc(C(=O)N2CCC(n3nccc3NC(=O)C3CCOC3)CC2)cc1 (stereo not given)	2%	-2%	-2	·	-12	9%	-1.4%
Cc1ccc(/C=C/C(=O)c2ccc([N+](=O)[O-])o2)cc1	·	·	14	·	54*	3%	-1.4%
